Screening results from PubChem BioAssay.
NS1 function inh = qHTS Assay for Inhibitors of Influenza NS1 Protein Function; S. cerevisiae slowed by influenza A NS1, growth recovery by OD600; Potency, µM (doses to about 46.1 µM), for the others: at the highest dose activity, positive = more growth; hit rate 0.4% among 270,000; AID 2326, 2010; further: actives are rising curves; nearly all actives have a fitted effect of over 50% in size
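A cell-based growth assay was used: compounds that relieve NS1-induced slow growth of budding yeast raise OD600. Assay medium was yeast nitrogen base with ammonium sulphate and -URA supplement, pH 6.0, with 2% galactose.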
Cruzain inh Det = qHTS Assay for Promiscuous and Specific Inhibitors of Cruzain (with detergent); purified cruzain, Z-FR-AMC fluorescence, 0.01% Triton; Potency, µM, inactives show max response, negative = inhibition, most hits filed as inhibitors; hit rate 0.43% among 200,000; AID 1478, 2009; active means well fitted curve in the direction sought with a large enough effect; inconclusive means small, poorly fitted or top-dose-only effect, or another doubt; inactive means no such curve, though single readings can be large; an effect the other way counts as inactive or inconclusive;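 further: plate controls were neutral wells for no effect and buffer without enzyme for full effect; nearly all actives have a fitted effect of over 40% in size; top concentration of the series not given in the record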
Target sequence (P25779 123-467 limits assumed): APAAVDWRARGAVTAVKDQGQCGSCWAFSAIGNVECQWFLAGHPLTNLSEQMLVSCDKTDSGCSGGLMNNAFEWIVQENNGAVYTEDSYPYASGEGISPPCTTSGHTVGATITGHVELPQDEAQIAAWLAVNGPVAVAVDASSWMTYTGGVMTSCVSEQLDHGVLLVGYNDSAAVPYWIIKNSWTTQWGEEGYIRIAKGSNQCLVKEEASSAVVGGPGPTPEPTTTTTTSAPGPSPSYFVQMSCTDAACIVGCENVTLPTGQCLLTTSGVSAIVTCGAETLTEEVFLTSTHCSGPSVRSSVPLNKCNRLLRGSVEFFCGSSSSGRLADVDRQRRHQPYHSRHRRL
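Detergent-containing arm of a paired screen for aggregation-based inhibition: 0.01% Triton X-100 present. Cruzain at 1.5 nM cleaved 2 uM Z-FR-AMC at pH 5.5 with 5 mM DTT; AMC fluorescence gain over 60 s measured activity.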
RE007 growth inh = qHTS Assay for Inhibitors of the HIV-1 protein Vpr. S. pombe RE007 Vpr strain, BacTiter-Glo ATP luminescence, 24 h; control for the full effect not named in the record. Potency, µM (titrated, usually from 92.2 µM), without a hit: at the highest dose activity change, negative = less growth. hit rate 0.21% among 360,000. AID 651644, 2012; active = well fitted falling curve with a large enough effect; inconclusive = small, poorly fitted or top-dose-only effect; inactive = no such curve, though single readings can be large or run the other way;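 further: on the % scale 0 is the no-effect control and ±100 the full control effect; nearly all actives have a fitted effect of over 50% in size; the assay follows cell death caused by Vpr and the record does not say whether a fall means rescue or toxicity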
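Fission yeast strain RE007, carrying one chromosomally integrated HIV-1 vpr copy, was seeded at OD 0.01 in PMG+AL medium with 23 nL pinned compound. After 24 h at 30 °C and 99% humidity, viability was read by BacTiter-Glo luminescence.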
LASV entry inh = qHTS for Inhibitors of binding or entry into cells for Lassa Virus; Lassa virus pseudotype entry inhibition, cell reporter; control for the full effect not named in the record; Potency, µM (doses to about 37.9 µM), for inactives: at the highest dose activity change, negative = inhibition, hits mostly inhibitors; hit rate 1.2% among 300,000; active means well fitted inhibition curve with a large enough effect; inconclusive means small, poorly fitted or top-dose-only effect, or effect the other way; inactive means flat fitted curve, though single readings scatter; tested in HEK293 cells; further: on the % scale 0 is the no-effect control and ±100 the full control effect; nearly all actives have a fitted effect of over 50% in size; luciferase read-out
SARS PLP yeast = qHTS of Yeast-based Assay for SARS-CoV PLP. Potency, µM (doses to about 32.9 µM), inactives show top-dose activity, positive = growth rescue. AID 485353, 2010. hit rate 0.19% among 330,000. S. cerevisiae expressing SARS-CoV PLpro, growth rescue; control for the full effect not named in the record; further: 0% is about no effect; nearly all actives have a fitted effect of over 55% in size; growth read by luminescence after 48 h
Cruzain noTriton = qHTS Assay for Promiscuous and Specific Inhibitors of Cruzain (without detergent) | purified cruzain, Z-FR-AMC fluorescence, no detergent | Cruzipain (Trypanosoma cruzi), P25779 | AID 1476, 2009 | Potency, µM, for the others: max response, negative = inhibition, actives largely listed as inhibitors | hit rate 2.3% among 200,000; active means well fitted curve in the direction sought with a large enough effect; inconclusive means small, poorly fitted or top-dose-only effect, or another doubt; inactive means no such curve, though single readings can be large; an effect the other way counts as inactive or inconclusive;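 further: plate controls were enzyme without inhibitor for no effect and buffer without enzyme for full effect; nearly all actives have a fitted effect of over 40% in size; top concentration of the series not given in the record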
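Purified cruzain at 1.5 nM, pre-incubated 15 min with compound at room temperature in 100 mM sodium acetate pH 5.5, 5 mM DTT, 0.00005% Triton X-100. Reaction started with 2 uM Z-FR-AMC; AMC fluorescence increase over 60 s gives rate.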
StopGo reporter = High Throughput Screening for Foot and Mouth Disease Virus Antivirals. AID 1159524, 2015. Potency, µM (top dose mostly 57.9 µM), for inactives: at the highest dose signal change, negative = less light. human cells with a luciferase reporter of 2A StopGo recoding; control for the full effect not named in the record. hit rate 1.2% among 410,000; active = well fitted falling curve with a large enough effect; inconclusive = small, poorly fitted or top-dose-only effect; inactive = no such curve, though single readings can be large or run the other way; tested in HEK293T cells; further: on the % scale 0 is the no-effect control and ±100 the full control effect; nearly all actives have a fitted effect of over 45% in size; luciferase light after 4 h
MARV entry inh = qHTS for inhibitors of binding or entry into cells for Marburg Virus; Marburg virus pseudotyped entry inhibition, cell reporter; control for the full effect not named in the record; about a third of the inactives were read at about 46 µM; Potency, µM (doses to about 37.8 µM), without a hit: top-dose activity change, negative = inhibition, most hits filed as inhibitors; hit rate 1.8% among 300,000; AID 540276, 2011; active = well fitted inhibition curve with a large enough effect; inconclusive = small, poorly fitted or top-dose-only effect, or effect the other way; inactive = flat fitted curve, though single readings scatter; tested in HEK293 cells; about a fifth of its hits are not listed in these tables; further: on the % scale 0 is the no-effect control and ±100 the full control effect; luciferase read-out
The depositor's hits bear a star; ? = inconclusive; . = not tested or not shown; & = joins results of further samples; [ ] = another dose, or the depositor's remark. Unless noted, the call rests on the fitted dose curve; in most records, active means well fitted rising curve with a large enough effect; inconclusive means small, poorly fitted or top-dose-only effect; inactive means no such curve, though single readings can be large or run the other way. Potency means the concentration at half of the fitted maximal effect.

Structure	NS1 function inh	Cruzain inh Det	RE007 growth inh	LASV entry inh	SARS PLP yeast	Cruzain noTriton	StopGo reporter	MARV entry inh
N#CC(C(=O)c1ccccc1Cl)=C1SCCCS1	-2%	.	2%	-30%	0%	.	-9%	3%
Cc1cccc(/C=N/NC(=O)NC2CCCCC2)c1	-19%	-0.9%	-17%	?	-1%	-5%	0%	-21%
Cc1cc(C)n2nc(S(=O)(=O)NCCc3ccccc3)nc2n1	8%	0.8%	-1%	.	5%	-15%	18%	.
O=C(Cn1nnc2ccccc21)N/N=C\c1cccs1	0%	-1.4%	-8%	4%	-11%	-5%	9%	4%
COc1ccc(S(=O)(=O)Nc2ccc3c(c2)OCCO3)cc1Cl	-14%	-6.9%	-7%	-6%	1%	-10%	6%	-16%
COc1cc2[nH]c(=S)n(NC(=O)c3ccccc3)c(=O)c2cc1OC	5%	-2.2%	1%	-1%	-3%	-6%	15%	-3%
COc1ccc2[nH]c3c(c2c1)CCN[C@H]3C	0%	.	-9%	12%[46.1 µM]	2%	.	?	?
COc1ccc(S(=O)(=O)NCc2ccco2)cc1-c1nnc2c3ccccc3c(C)nn12	-4%	-1.5%	51%	-12%	2%	-2%	42%[activator]	0%&-10%
COc1cc(OC)c(NC2=CC(=O)C(=O)c3ccccc32)cc1Cl	-3%	.	-14%	.	-1%	.	?	.
CC1(C)CC(=O)C2=C(C1)N1C(=C(C#N)C2c2ccc(Cl)cc2)N=C(N)c2ccccc21 (stereo unspecified)	12%	-5.5%	7%	?	-11%	-10%	?	?
COc1ccc(OC)c2c1sc(=NC(=O)C1CCCCC1)n2C	-1%	.	6%	18%	0%	.	-15%	2%[46.1 µM]
O=C(Nc1ccc(-c2nc3ccccc3[nH]2)cc1)c1ccccc1NS(=O)(=O)c1ccc(F)cc1	7%	-8.5%	.	9%	9%	16µM*	16%	?
CC(C)(C)c1ccc(-c2noc(CCC(=O)NCC3CCCO3)n2)cc1 (stereo unspecified)	-3%	-7.1%	-9%	?	-9%	?	-21%	?
Cc1cccc(CNC(=O)c2sc3ncnc(N(C)C4CCCCC4)c3c2C)c1	.	-3.7%	.	-29%[46.1 µM]	.	-14%	-28%	.
Nc1c(C(=O)Nc2ccccc2)sc2ncc([N+](=O)[O-])cc12	4%	.	15%	3%	2%	.	19%	?
O=C(OCc1ccc(Cl)c(Cl)c1)c1cnccn1	-110%	-13%	-14%	22%	-11%	-8%	-20%	-4%[46.1 µM]
CCOC(=O)[C@@H]1[C@H]2COc3ccccc3[C@H]2N2C(=O)N(c3cccc(F)c3)C(=O)[C@]12C	11%	.	8%	.	0%	.	1%	.
CCN(CC)S(=O)(=O)c1ccc2c(c1)nc(CN(C)C(=O)Nc1ccc(Cl)cc1)n2C	.	-1.3%	.	11%[46.1 µM]	.	2%	-20%	.
CCCn1c(=S)[nH]c2cc(C(=O)N3CCc4ccccc4C3)ccc2c1=O	.	.	-7%	-1%	-5%	.	-18%	1%[46.1 µM]
CCCn1nnnc1NC(=O)c1cc(Br)ccc1OC	-2%	.	3%	.	-1%	.	-8%	.
CCCC(C(=O)NC(C)(C)CC)N(CC1CCCO1)C(=O)CNS(=O)(=O)c1ccc(F)cc1 (stereo unspecified)	3%	.	1%	1%	1%	.	5%	-27%[46.1 µM]
Cc1cc(N/N=C/c2ccc(Cl)cc2Cl)nc(NCc2ccccc2)n1	-28%	-13%	-9%	-16%	-84%	2%	0%	?
CCCCC(=O)NC(NC(=S)N1CCOCC1)C(Cl)(Cl)Cl (stereo unspecified)	4%	2.4%	13%	?	-2%	0%	19%	-1%
CCn1nnnc1SCC(=O)N1c2ccccc2Sc2ccccc21	-9%	-7.0%	38%	14%	-14%	2%	-10%	?
COc1ccc(C(=O)COC(=O)C2CC3CCCC(C2)C3=O)cc1Br (stereo unspecified)	.	.	4%	-2%	?	.	-8%	26%
CCN1CCN(C(=S)Nc2ccc(C(C)=O)cc2)CC1	-8%	.	7%	.	-1%	.	-2%	.
COCCn1c(=O)[nH]c2cc(C(=O)Nc3nnc(C)s3)ccc21	-4%	.	-23%	7%	-1%	.	37%[activator]	3%[46.1 µM]
COC(=O)CSc1nnc([C@H](Cc2ccccc2)NC(=O)OC(C)(C)C)o1	0%	-0.5%	-18%	5%	0%	4%	0%	0%
O=S(=O)(/N=C/c1ccccc1O)c1cccs1	-2%	-2.2%	4%	13%	-1%	-3%	.	17%
CCc1ccc(NC(=O)Nc2ccncc2)cc1	1%	.	-10%	27%[46.1 µM]	0%	.	24%	3%[46.1 µM]
COc1ccc(NC(=O)C2CCCN(c3c4c(nc5ncnn35)CCC4)C2)cc1OC (stereo unspecified)	-2%	-2.5%	4%	-26%	4%	-3%	-29%	-17%
O=C(NCc1cccnc1)NC1CC(=O)N(c2ccc3c(c2)OCCO3)C1 (stereo unspecified)	.	.	17%	-15%[46.1 µM]	0%	.	5%	?
Oc1ccccc1/C=N/NC(=S)NC1CC2CCC1C2 (stereo unspecified)	4%	.	?	?	0%	.	51%[activator]	?
Cc1ccc(NS(C)(=O)=O)c(C(=O)c2ccccc2)c1	5%	3.8%	-5%	5%	-1%	10%	-9%	-9%
CC(=O)OC1c2ccccc2C(=O)N1Cc1ccccc1 (stereo unspecified)	?	2.4%	2%	.	11%	0%	-9%	.
COc1cc(/C=C(\C#N)c2nc3ccccc3[nH]2)cc(Cl)c1OCc1ccccc1Cl	.	0.4%	.	-28%[46.1 µM]	.	10µM*	?	.
CCCCC1(CCCC)C(=O)NC(=Nc2cccc(C)c2)NC1=O	-135%	-9.7%	-17%	-2%	-11%	-12%	-23%	14%
O=c1[nH]cc(C(F)(F)F)cc1NS(=O)(=O)c1ccc([N+](=O)[O-])cc1	.	.	-12%	6%	-6%	.	2%	23%[46.1 µM]
CCc1cccc(NC(=O)c2cc3c(s2)-c2ccccc2OC3)c1	.	0.7%	.	.	.	-11%	45%	?
CCCCNC(=O)C1CCN(Cc2ccc(OCc3ccccc3)cc2)CC1	-27%	-0.7%	-12%	?	-1%	-2%	12%	?
COC(=O)C1=C(CN2CCCc3ccccc32)NC(=O)NC1c1ccc(F)cc1 (stereo unspecified)	-10%	-6.4%	2%	?	-3%	-9%	.	?
COc1cc(/C=C2\SC(=S)N(c3cccnc3)C2=O)ccc1O	5%	.	8%	.	0%	.	3%	.
COc1cc2c(cc1OC)CN(c1nc(CN3CCCCC3)nc3sc4c(c13)CCCC4)CC2	7%	-5.1%	8%	?	9%	-13%	-7%	?
Cc1nc(SCC(=O)Nc2c(C)n(C)n(-c3ccccc3)c2=O)n[nH]1	-3%	1.2%	12%	0%	-16%	1%	17%	-8%
CCOc1ccc(-c2cc(CCCC(=O)NCCc3ccc(OC)c(OC)c3OC)no2)cc1	4%	0.2%	-8%	-9%	-2%	?	-20%	?
Cc1cc2c(cc1C)NC(CC(=O)Nc1ccccc1SC(F)(F)F)C(=O)N2 (stereo unspecified)	.	-3.0%	.	23%[46.1 µM]	.	-1%	4%	-20%[46.1 µM]
COc1ccc(-c2csc(NC(=O)CSc3nnnn3C)n2)cc1OC	.	.	-16%	-1%	-7%	.	-22%	?
O=C(Nc1cnc2ccccc2c1)N1CCCCC1	-11%	4.9%	-3%	-13%	-1%	5%	-18%	?
CN(c1ccc(F)cc1)S(=O)(=O)c1ccc(Cl)c(C(=O)Nc2ccc3c(c2)CCC3)c1	17%	-3.6%	-4%	?	3%	?	1%	-29%
O=C(O)C12C3CCC(O3)C1(C(=O)O)C1CCC2O1 (stereo unspecified)	.	.	-9%	8%[46.1 µM]	.	.	-5%	2%
C/C(CC(=O)Nc1ccccc1C)=N\NC(=O)Cc1csc(N)n1	23%	1.8%	-10%	16%	7%	9%	20%	3%
CN(C)c1ccnc(Oc2ccc(F)cc2)c1C#N	-52%	4.0%	?	19%	3%	-8%	.	?
Cc1ccc(C)c(N2N=C(C(=O)N(CC(C)C)c3c(N)n(Cc4ccccc4)c(=O)[nH]c3=O)CCC2=O)c1	-5%	.	4%	.	1%	.	2%	.

Four of the compounds above, field by field.
> CCOc1ccc(-c2cc(CCCC(=O)NCCc3ccc(OC)c(OC)c3OC)no2)cc1
  NS1 function inh: 4%	Cruzain inh Det: 0.2%	RE007 growth inh: -8%	LASV entry inh: -9%	SARS PLP yeast: -2%	Cruzain noTriton: ?	StopGo reporter: -20%	MARV entry inh: ?
> Cc1cc2c(cc1C)NC(CC(=O)Nc1ccccc1SC(F)(F)F)C(=O)N2 (stereo unspecified)
  NS1 function inh: .	Cruzain inh Det: -3.0%	RE007 growth inh: .	LASV entry inh: 23%[46.1 µM]	SARS PLP yeast: .	Cruzain noTriton: -1%	StopGo reporter: 4%	MARV entry inh: -20%[46.1 µM]
> COc1ccc(-c2csc(NC(=O)CSc3nnnn3C)n2)cc1OC
  NS1 function inh: .	Cruzain inh Det: .	RE007 growth inh: -16%	LASV entry inh: -1%	SARS PLP yeast: -7%	Cruzain noTriton: .	StopGo reporter: -22%	MARV entry inh: ?
> O=C(Nc1cnc2ccccc2c1)N1CCCCC1
  NS1 function inh: -11%	Cruzain inh Det: 4.9%	RE007 growth inh: -3%	LASV entry inh: -13%	SARS PLP yeast: -1%	Cruzain noTriton: 5%	StopGo reporter: -18%	MARV entry inh: ?
